Source: PubChem
A1 inh: inhibitors of the anti-apoptotic protein A1, read as caspase activation | MEF A1-2A-BIM cells, Caspase-Glo 3/7 luminescence, 3 h; percent of clofoctol response, vehicle zero | caspase activation, % (no concentration beside the values) | 330,000 tested, 0.066% active | AID 2462;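 active = over half of replicate activation scores above 10%, or exactly half above 10 with the replicate mean above 10; inconclusive = replicate mean below 10 yet half the replicates above 10; inactive = over half of replicates below 10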;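 note: wells of about 30 µL received 50 nL stock; many hits fall short of the cut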
UCH37 DUB inh: inhibitors of human deubiquitinating enzyme UCH37 | inhibition, % (concentration not given with the values) | Q9Y5K5 | 330,000 tested, 0.33% active | AID 588478 | purified proteasome/UCH37, Ub-AMC cleavage fluorescence;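 active = mean of two replicates above 20%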;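 note: 0% = compound-free wells with enzyme and 100% = wells lacking proteasome; stock transfer was 100 nL into about 20 µL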
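Reagent: Ub-AMC substrate; assay system: Proteasome-associated human UCH37 deubiquitinase; controls: no-proteasome and no-compound wells; read-out: % inhibition of Ub-AMC cleavage fluorescence; timing: 30 min preincubation with enzyme, 25 min cleavage at room temperature; signal: AMC fluorescence from Ub-AMC cleavage, excitation 355 nm, emission 460 nm; buffer or medium: Tris-HCl pH 7.4 plus ovalbumin, ATP-MgCl2, DTT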
LANA-H2B inh: blocks KSHV LANA binding to histone H2A/H2B | Q9QR71 | cell-free LANA-H2A/H2B peptide, fluorescence polarization | inhibition, % (concentration not given with the values) | 320,000 tested, 0.6% active | AID 2629; in the data active = inhibition mostly above about 10%, no sharp cut-off; inactive = mostly below about 6.7%;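 note: stock transfer was 7.5 nL into about 10 µL; 0% = median of vehicle wells and 100% = median of positive control wells; one replicate is shown; the record names a cut of 25% in any replicate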
Target sequence (Q9QR71 whole entry, looked up): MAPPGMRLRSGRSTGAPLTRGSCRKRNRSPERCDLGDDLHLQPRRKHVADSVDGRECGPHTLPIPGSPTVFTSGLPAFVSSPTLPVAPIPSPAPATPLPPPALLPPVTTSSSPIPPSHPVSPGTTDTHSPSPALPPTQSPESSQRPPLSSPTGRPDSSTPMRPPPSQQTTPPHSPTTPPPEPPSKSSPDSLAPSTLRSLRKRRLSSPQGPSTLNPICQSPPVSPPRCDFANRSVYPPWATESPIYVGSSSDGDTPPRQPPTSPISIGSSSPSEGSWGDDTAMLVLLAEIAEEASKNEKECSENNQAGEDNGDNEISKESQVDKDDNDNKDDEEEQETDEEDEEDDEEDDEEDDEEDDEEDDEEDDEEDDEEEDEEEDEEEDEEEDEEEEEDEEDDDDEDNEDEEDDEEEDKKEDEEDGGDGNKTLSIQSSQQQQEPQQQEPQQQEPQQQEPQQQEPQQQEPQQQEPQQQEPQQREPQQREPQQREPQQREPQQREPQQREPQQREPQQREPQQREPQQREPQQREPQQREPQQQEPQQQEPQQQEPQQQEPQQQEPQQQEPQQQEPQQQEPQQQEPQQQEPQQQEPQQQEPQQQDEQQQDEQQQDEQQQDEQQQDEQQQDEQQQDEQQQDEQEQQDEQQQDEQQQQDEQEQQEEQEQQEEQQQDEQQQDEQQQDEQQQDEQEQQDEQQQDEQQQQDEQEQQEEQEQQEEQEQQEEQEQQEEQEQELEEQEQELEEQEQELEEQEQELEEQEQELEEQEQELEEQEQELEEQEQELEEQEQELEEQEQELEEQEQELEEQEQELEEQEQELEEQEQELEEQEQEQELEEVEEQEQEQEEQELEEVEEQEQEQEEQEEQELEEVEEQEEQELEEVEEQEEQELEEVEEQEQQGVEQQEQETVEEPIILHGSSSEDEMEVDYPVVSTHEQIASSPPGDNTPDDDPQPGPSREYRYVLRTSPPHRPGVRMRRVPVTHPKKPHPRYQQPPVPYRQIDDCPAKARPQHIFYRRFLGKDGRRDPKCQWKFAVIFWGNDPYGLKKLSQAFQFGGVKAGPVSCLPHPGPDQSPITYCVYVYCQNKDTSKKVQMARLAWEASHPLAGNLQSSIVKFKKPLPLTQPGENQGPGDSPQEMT
RanGTP-Imp inh: disruptors of Ran-importin-beta complex formation – biochemical, FRET, CFP-Ran, YFP-importin-beta, homogeneous, primary screen. cell-free CFP-Ran/YFP-importin-beta FRET ratio. inhibition, % (no concentration beside the values). 300,000 tested, 1.1% active. AID 2216;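 active = most replicates above 15%; inconclusive = exactly half above 15%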;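 note: 0% = DMSO wells and 100% = Ran loaded with GDP instead of GTP; wells of about 40 µL received 100 nL stock; the first replicate is given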
Beta apoptosis: beta cell apoptosis inhibition. INS-1E cytokine-induced death, ATP luminescence, 48 h; percent of positive-control rescue, neutral wells zero. protection from apoptosis, % (concentration not given with the values). 300,000 tested, 0.8% active;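 active = all replicates at 75% or more, or half of them and the mean; inconclusive = half reach 75% but not the mean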;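 note: 0% = cytokine-treated negative control wells and 100% = positive control rescue; higher means more ATP so stronger rescue from cytokine killing; wells of about 40 µL received 100 nL stock; the first replicate is given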
B2AR ag: agonists of human beta-2 adrenergic receptor inducing internalization; response, % (concentration not given with the values); 340,000 tested, 0.43% active; P07550; AID 504454; Am2.2-beta2AR cells, FAP receptor internalization, flow cytometry; reference of the scale not given here;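 active = response above a set limit, near 3 SD of response in nonfluorescent compounds, cut at about 42% in these data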;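 note: stock transfer was 100 nL into about 11 µL; a reference agonist was the positive control; negative values mostly stem from fluorescent compounds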
Calb FLC: affects C. albicans growth with fluconazole. C. albicans CaCi-2 (fluconazole-resistant clinical isolate) + fluconazole, Alamar Blue growth, 48 h. growth inhibition, % (concentration not given with the values). 300,000 tested, 0.57% active. AID 1979;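 active = most replicates above 75%; inconclusive = exactly half above 75%; inactive = most below 75%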;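 note: all wells also contain fluconazole at 8 µg/ml as a sub-toxic cotreatment; 0% = median of DMSO wells and 100% = median of geldanamycin control wells; wells of about 8 µL received 7.5 nL stock; the first replicate is given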
T cruzi inh: blocks replication of Trypanosoma cruzi | AID 1885 | 300,000 tested, 1.4% active | inhibition, % (test concentration not listed) | T. cruzi beta-gal in NIH3T3, luminescence, 90 h;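 active = mean inhibition across valid replicates above about 55%, limit read from the data; inconclusive = mean below that limit but half or more replicates reach it; inactive = mean below it, under half of replicates reach it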;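 note: signal also drops with host cell toxicity which is not excluded here; 0% = plate median of DMSO wells and 100% = zero luminescence signal; higher percent means less beta-gal luminescence so fewer parasites; stock transfer was 50 nL into about 50 µL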
Starred values were filed as active, the others as inactive; i = inactive; u = inconclusive; x = not tested or not shown.

Fields – RanGTP-Imp inh, Calb FLC, T cruzi inh, UCH37 DUB inh, LANA-H2B inh, Beta apoptosis, B2AR ag, A1 inh
> CC(C)c1cc(C(N)=O)c(NC(=O)C2CCC2)s1
 : 1.2, 3, 6, 6.7, -2.4, -10, -19, -0.4
> CCCCCCCC(=O)Nc1cc(C(=O)NCCC)ccc1N1CCC2(CC1)CC(c1ccccc1)=NO2
 : 7.3, 13, 57*, 1.1, 1.8, x, -1, -1.8
> CC1=Nc2cc(C(=O)O)ccc2Sc2ccc(Br)cc21
 : x, x, x, 4.4, 2.4, -1, 5, 1.0
> CCCCN(C)Cc1c(C)[nH]c2ccccc2c1=O
 : 3.2, -2, 7, -1.1, -0.8, -4, -7, 1.7
> Cc1cc(C)c2sc(N(CCCN(C)C)C(=O)c3ccc(S(=O)(=O)N4CCc5ccccc5C4)cc3)nc2c1
 : 6.9, -1, 47, x, -1.4, x, 51*, 0.2
> c1ccc2c(c1)nc(N1CCCCC1)c1ccccc12
 : 4.2, -25, 6, -36, -3.0, x, -1, 0.2
> Cc1ccc(CC(=O)N2CCC(c3nc4c(nnn4Cc4ccccc4)c(=O)[nH]3)CC2)cc1
 : 1.2, -2, -24, 5.2, -1.0, x, 7, 0.3
> O=C(N/N=C/c1ccccc1C(F)(F)F)c1ccc(O)cc1
 : 2.3, -20, -3, x, 0.9, -4, -1, -0.7
> COc1ccc(-n2nc3c(c2NC(=O)CBr)CSC3)cc1
 : 1.9, -8, 2, 3.5, -1.4, 1, -5, -0.8
> O=C(CSc1nnc2ccc(-c3cccnc3)nn12)Nc1cccc(F)c1
 : -5.4, -4, 2, 2.7, x, x, -5, x
> Cn1c(=O)c2c(SC3CCCC3)nc(C3CC3)nc2n(C)c1=O
 : 0.1, 1, -17, 5.5, -7.0, -2, -12, x
> CCN1C(=O)/C(=C/c2cccs2)S/C1=N\S(=O)(=O)c1ccc(C)cc1
 : -2.3, -7, -2, x, 1.2, -3, -3, -0.4
> Cc1ccccc1Nc1nc(N)nc(COC(=O)c2c(C)noc2C)n1
 : x, x, x, 0.7, 4.1, 1, -8, 0.4
> Cc1ccc(-n2ncc(Cl)c2C(=O)NC2CC2)cc1
 : 4.7, -44, -30, 2.6, -15, -4, -11, -4.4
> COc1cc(CCN2C(=O)c3cccc4cccc(c34)C2=O)c(S(=O)(=O)NCCO)cc1OC
 : -2.6, -1, 4, 6.0, 2.2, 5, -14, 0.6
> COc1ccc(OC)c(-c2cc(C(=O)Nc3c(C)nn(Cc4ccccc4Cl)c3C)no2)c1
 : -2.1, 11, 39, -42, -0.7, 5, 7, 0.4
> CC1CCc2cc(F)ccc2N1C(=O)C12CCC(C)(C(=O)O1)C2(C)C (stereo not given)
 : -1.3, 2, 10, -0.6, 0.2, 0, 3, 0.1
> CCOc1ccccc1N1CC(C(=O)N(C)Cc2cccnc2)CC1=O (stereo not given)
 : -2.2, -6, -2, -0.8, -0.2, 0, -12, 1.0
> CCC1CCc2c(sc(NC(=O)C3c4ccccc4Oc4ccccc43)c2C(N)=O)C1 (stereo not given)
 : 3.4, -8, 37, -0.8, 0.7, -4, -5, 0.0
> CN(NC(=O)c1ccccc1F)c1ncccc1[N+](=O)[O-]
 : -2.0, -9, 2, 2.3, -3.4, 4, -6, -0.3
> O=C(NCCCN1CCOCC1)c1cc(-c2ccc(Cl)s2)nc2ccccc12
 : 5.1, 15, -9, i, -3.9, -2, 3, -0.6
> NC(N)=NC(N)=Nc1ccccc1
 : x, x, x, -2.3, x, 1, 2, -0.1
> Cc1nc(N/N=C\c2ccc3c(c2)OCO3)sc1C
 : 7.7, -6, -15, x, 0.0, 7, 7, -0.5
> CN(Cc1ccccc1)C(=O)COc1ccccc1
 : -1.1, 7, -7, -0.8, 0.9, 3, -6, -0.6
> COc1cc(OC)cc(C(=O)N[C@H](C(=O)OCC(=O)Nc2ccc(C(N)=O)cc2)C(C)C)c1
 : 0.8, -3, -22, 1.8, -3.9, -2, -4, 0.5
> O=C(Nc1ccc(N2CCOCC2)cc1N1CCOCC1)c1ccc(Br)cc1
 : -1.3, 1, 1, -20, -0.5, -15, 1, -0.9
> CCCCn1c(N)c(N(CCOC)C(=O)c2cnc(C)cn2)c(=O)[nH]c1=O
 : -2.8, -6, 3, 2.2, 0.6, -2, -8, 0.1
> CCOc1ccc(CNC(=S)N/N=C/c2ccncc2)cc1
 : 0.3, -12, 18, x, 7.7, -8, 1, -0.7
> CC(CCc1ccccc1)NC(=O)Cc1ccccc1 (stereo not given)
 : -3.8, 1, -16, 1.7, 4.3, -4, 1, 1.0
> COc1ccc(-c2cc(CNC(=O)CN(C)Cc3ccccc3)on2)cc1
 : -2.4, -15, 1, -3.9, 1.8, -1, -5, 0.1
> Nc1cc(C(=O)c2cccs2)ccc1Cl
 : 0.0, -6, -8, -0.4, 3.2, -7, -7, -0.3
> Cc1ccc(S(=O)(=O)Nc2ncnc3sc(C)c(C)c23)cc1
 : x, x, x, 2.3, -0.8, -3, -2, -0.1
> COc1cccc(N2CCN(Cc3ccsc3)CC2)c1
 : -0.9, -14, -19, -2.9, 1.3, -3, 2, 0.0
> CC(Cc1ccccn1)NC(=O)c1ccc(OC2CCN(CCc3ccccc3)CC2)cc1 (stereo not given)
 : -0.3, -3, 21, 2.1, x, x, -8, x
> COc1ccc(NC(=O)Nc2ccc(C)cc2OC(F)F)cc1OC
 : 6.5, -6, -15, 3.3, 0.6, 5, 0, 0.3
> CCOC(=O)CC1=C(C(=O)OCC)C(c2ccc(OC)c(OC)c2)C(C#N)=C(N)O1 (stereo not given)
 : 2.9, -10, -2, 3.4, 3.5, -7, 4, 0.4
> Cc1ccc(NC(=O)c2sc3ncn(CC(=O)N4CCN(c5ccccn5)CC4)c(=O)c3c2C)cc1Cl
 : -3.3, -6, 6, -20, 5.8, 6, 2, 0.7
> CCC(C(=O)OCC(=O)Nc1ccc(SC(F)F)cc1)c1ccccc1 (stereo not given)
 : 2.4, 2, 58*, 6.9, x, x, 2, x
> CCOC(=O)c1c(C)oc2ccc(OCC(=O)C(C)(C)C)cc12
 : -2.7, 6, 12, 1.9, 4.6, 1, 3, -3.2
> Cc1cc(C(=O)OCC(=O)NCc2ccccc2)c(C)o1
 : -4.4, -8, 4, 0.5, -1.4, 0, 1, -0.6
> CC(C)C1Oc2ccccc2N(CC(=O)N(Cc2ccncc2)Cc2ccco2)C1=O (stereo not given)
 : -4.5, -5, 26, 1.0, 0.1, 0, 2, 0.1
> CCOc1ccc(CCNC(=O)CN2CCN(Cc3ccc(F)cc3)C2=O)cc1OCC
 : 3.3, -3, 19, 1.9, -0.4, x, -3, -0.3
> COc1ccc(C(CCN(Cc2ccc(OC)c(OC)c2)C(C)=O)C(C)C)cc1 (stereo not given)
 : 4.6, -2, 1, 0.4, 2.2, 1, 11, -1.2
> S=c1[nH]nc(CSCc2ccccc2Cl)n1C1CCCCC1
 : 2.1, 6, 35, 3.1, x, x, 7, x
> CC(C)Cc1cc(C(=O)N2CCCC(C(=O)c3cc(F)ccc3F)C2)no1 (stereo not given)
 : 8.7, -10, 19, 8.4, 0.6, 2, 0, 0.8
> O=c1oc2ccccc2c(NC2CCCCC2)c1NS(=O)(=O)c1ccc(Cl)cc1
 : 5.6, -5, 8, -0.6, x, x, 4, x
> Cc1ccc(NC(=O)C2CCCN2S(=O)(=O)c2ccc3c(c2)n(C)c(=O)c(=O)n3C)cc1 (stereo not given)
 : -1.2, -2, 11, 2.8, 1.7, -5, 6, 0.1
> Cc1cc(S(=O)(=O)NCc2ccc3c(c2)OCO3)ccc1F
 : 9.6, -16, -9, 0.4, -2.0, x, -5, 0.1
> COc1ccc(-c2cc(=O)oc3cc(OCC(=O)NCCN4CCOCC4)ccc23)cc1
 : -0.5, 14, 7, -11, 16*, -4, -3, -0.4
> O=C1N=NC(=O)N1c1ccccc1
 : -2.5, x, 11, 0.7, -5.3, 1, 22, -0.3
> COC(=O)CN(C#N)c1nc(NC(C)C)nc(OC)n1
 : u, -16, 8, 0.5, -3.0, 1, 0, 0.6
> CC(C)Oc1ccc(C(=O)Nc2c3c(nn2C(C)(C)C)CS(=O)(=O)C3)cc1
 : 7.1, -4, -1, 1.2, -3.4, -5, 2, 1.8
> Cc1noc(C)c1COc1ccccc1C(=O)N(C)CC(=O)Nc1ccc(Cl)c(Cl)c1
 : x, 0, 15, 1.0, 4.4, 6, -1, 1.2
> Cc1ccccc1NC(=O)NCc1cccnc1
 : 2.3, 1, -6, 1.9, -0.8, -4, -1, 1.1
> N#Cc1nc(-c2cccs2)oc1NCCN1CCOCC1
 : 2.4, 13, 4, -358, 4.0, -1, -8, -1.2
> O=C(NCCCN1CCOCC1)c1cc(S(=O)(=O)N2CCOCC2)ccc1Cl
 : x, x, x, -1.6, 1.9, -2, 2, -0.3
> CC1(C)CC(N=c2cc(-c3ccccc3)oc3ccc(Cl)cc23)CC(C)(C)N1
 : -0.7, 16, 50, 3.6, x, x, 40, x
> Cc1nn(C(C)C(=O)NC2CCCCCC2)c(=O)c2nn(-c3ccccc3)c(C)c12 (stereo not given)
 : 2.0, -1, -15, 1.8, 8.9, 7, -4, 1.0
> CCCOC(=O)Nc1nc2ccccc2o1
 : 1.5, 5, -4, 1.1, -1.1, 0, -112, -4.7
> O=C(NCc1cccc(F)c1)c1cccc(OC2CCN(C(=O)C3CC3)CC2)c1
 : 2.1, -17, -8, 4.2, -15, 8, 7, 1.2
> COC(=O)Cn1c(=O)c(C)nc2ccccc21
 : 2.7, -11, -9, -24, -2.5, 3, 4, -0.2
> COc1ccc(OCc2cc(C(=O)N3CCCC3)no2)c2ccccc12
 : 0.9, 8, 15, 3.5, 2.3, -3, 14, -3.2

Compounds were not picked by outcome. About 4.3% of those tested had a hit in this group.
